VDR inhibitor – blocks the human vitamin D receptor. actives 0.93% (n = 400,000). VDR-SRC2-3 peptide fluorescence polarization, 2 h. Potency, µM, for inactives: max response, negative = inhibition, hits mostly inhibitors. P11473. AID 504847; active means well fitted inhibition curve with a large enough effect; inconclusive means small, poorly fitted or top-dose-only effect, or another doubt; inactive means no such curve, though single readings can be large or run the other way; further: series mostly up to about 120 µM
Target sequence (P11473 whole entry, looked up): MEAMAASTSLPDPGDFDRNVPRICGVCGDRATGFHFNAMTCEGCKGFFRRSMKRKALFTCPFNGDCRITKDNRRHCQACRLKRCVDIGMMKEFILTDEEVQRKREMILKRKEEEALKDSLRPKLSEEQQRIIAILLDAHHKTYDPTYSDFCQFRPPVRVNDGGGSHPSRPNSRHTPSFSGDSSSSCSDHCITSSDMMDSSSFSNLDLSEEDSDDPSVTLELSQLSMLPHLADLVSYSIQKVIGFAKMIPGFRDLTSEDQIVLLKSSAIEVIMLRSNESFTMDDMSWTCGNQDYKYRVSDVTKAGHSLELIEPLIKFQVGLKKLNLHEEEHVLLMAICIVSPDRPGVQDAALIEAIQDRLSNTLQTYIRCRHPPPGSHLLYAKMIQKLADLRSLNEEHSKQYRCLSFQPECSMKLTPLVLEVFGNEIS
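VDR–SRC2-3 interaction, FP format. Cmpds 23 nl via pintool, brief spin, 2 h ambient incubation.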
* marks the source's active call; other numbers are inactive results; ? = inconclusive; & = joins results of further samples; [ ] = remark or other dose. On the % scale 0 is the no-effect control and ±100 the full control effect; potency means the concentration at half of the fitted maximal effect. These rows are one share of the data. The share of hits here may be higher or lower than overall.

VDR inhibitor	SMILES
-5.6%	CC(=O)Nc1cc(C(F)(F)F)ccc1N1CCOCC1
7.7%	CC(C)c1ccc(/C=C/C(=O)O)cc1
-2.2%	O=C(c1ccccc1)N1CCN(C(=O)c2cccnc2)CC1
9.1%	COc1cc(NC(=O)c2c3c(nc4ccccc24)C(=O)N(C2CCCCC2)C3)cc(OC)c1
5.7%	COc1ccc(-n2nc(C(=O)NCC(=O)NCCCN3CCOCC3)c3ccccc3c2=O)cc1Cl
10.8%	Cc1cc(Nc2sc(C(=O)c3ccc(F)cc3)c(N)c2C(=O)Nc2ccc(F)cc2)ccc1Cl
-17.6%	CC(C)(C)c1cc(NC(=O)COC(=O)c2ccc(O)cc2O)n(-c2ccccc2)n1
-4.0%	COc1ccc(CC(=O)N2CCCc3ccccc32)cc1OC
-8.1%	NC(=O)C1CCN(c2nc(-c3ccc4c(c3)OCCO4)cs2)CC1
-4.0%	Cc1ccc(CNC(=O)CC2Oc3ccc(Cl)cc3NC2=O)cc1 (configuration not stated)
23.0%	Cc1ccc(NC(=O)c2cc(-c3ccccc3)n[nH]2)cc1
8.5%	Cn1c(C(=O)NCCCN2CCN(c3ccccc3F)CC2)cc2c(=O)n(C)c3ccccc3c21
-20.1%	O=C(NCc1cccc(Cl)c1)c1ccc(S(=O)(=O)Nc2cccc(C(F)(F)F)c2)cc1
29.4%	CSCCC(NC(=O)COc1ccccc1)C(=O)OCC(=O)c1cc2ccccc2o1 (configuration not stated)
11.0%	COc1ccc(OCC(O)CNC(=O)Nc2ccccc2)cc1 (configuration not stated)

(continued)
VDR inhibitor	SMILES
-16.1%	CCOC(=O)C1=C(c2ccccc2)NC(=O)NC1c1ccc(OC)cc1 (configuration not stated)
-13.0%	Cc1ccc2nc(-c3cccnc3)c(NC3CCCCC3)n2c1
11.3%	CCOc1nc2c(c(-c3cccs3)c1C#N)Cc1ccccc1-2
5.3%	CCC(CC)C(=O)Nc1cccc(C(=O)Nc2ccc3c(c2)OCO3)c1
-18.8%	Cc1ccc(CNC(=O)C2CCCN(S(=O)(=O)c3c(C)[nH]c(=O)[nH]c3=O)C2)cc1 (configuration not stated)
15.5%	O=C(NCc1cccnc1)C1CCC(CNS(=O)(=O)c2cccc3nsnc23)CC1 (configuration not stated)
-16.6%	CC(C)(C)C1CCC(OC(=O)C[N+]2(C)CCCC2)CC1 (configuration not stated)
?	Cc1ccc2c(c1)c1nnc(SCC(=O)Nc3ccc(N(C)C)cc3)nc1n2CC(=O)O
-3.7%	O=C(Nc1ccc(O)c(-c2nc3ccccc3o2)c1)c1ccco1
-22.4%	Cc1ccc(C)c(NC(=O)CN(C)C(=O)[C@@H](NC(=O)c2ccc(C(C)(C)C)cc2)C(C)C)c1
0.2%	COc1ccc(/C=C(\NC(=O)c2ccc(Cl)cc2)C(=O)NCC2CCCO2)cc1OC (configuration not stated)
-17.0%	O=C(CSc1nnnn1-c1ccc2c(c1)OCO2)NCc1ccccc1
18.6%	CCC(=O)N1c2ccccc2C(N(C(=O)CC)c2ccccc2)CC1C (configuration not stated)
3.8%	CCOc1cccc2cc(C(=O)NC(C)c3ccccc3)c(=N)oc12 (configuration not stated)
20.0%	CC(C)CCNC(=O)Nc1ccc2c(c1)N(C)C(=O)CS2

(listing goes on)
VDR inhibitor	SMILES
14.1%	COC(=O)CN(c1c(C)cccc1C)S(C)(=O)=O
-6.9%	CCOC(=O)c1c(C)c[nH]c1C
-4.8%	COC(=O)C1CCCN1C(=O)C1CCCN1C(=O)CNC(=O)OCc1ccccc1 (configuration not stated)
3.6%	O=C(NCC(F)(F)F)c1nn(Cc2ccccc2)c(=O)c2ccccc12
10.4%	CN1CCN(Cc2c(C(=O)N3CCc4ccccc4C3)nc3ccc(Cl)cn23)CC1
0.1%	CC(C)CCOc1ccc(C(=O)O)cc1
-10.3%	CCC(=O)Nc1ccc(NC(=O)CSc2nnnn2-c2cccnc2)cc1C
3.0%&-19.6%	O=C(O)C1(O)C[C@H](O)C(O)[C@@H](O)C1 (some centres not stated)
-14.1%	Cc1ccc(Cn2c(=O)n(C)c(=O)c3sccc32)cc1
-2.0%	COc1ccc2c(c1)-c1ccccc1S(=O)(=O)N2C(C)=O
-19.4%	Cc1cc(F)ccc1S(=O)(=O)N1CCCOC1CNC(=O)C(=O)NCc1ccco1 (configuration not stated)
-3.5%	COc1cc2c(cc1OC)-c1nc3ccccc3c(=O)n1C(C)(C)C2
-9.3%	O=C(CSc1nc(-c2ccccc2)c(-c2ccccc2)[nH]1)Nc1ccc2c(c1)OCO2
-17.2%	COc1c(/C=C2\SC(=Nc3ccccc3Cl)NC2=O)cccc1[N+](=O)[O-]
-4.3%	CNc1nc(SCC(=O)Nc2ccccc2)nc(N2CCOCC2)n1

Next structures follow:
VDR inhibitor	SMILES
0.4%	COc1ccccc1N1CCN(CC(O)c2ccc3cc[nH]c3c2)CC1 (configuration not stated)
-5.8%	O=C(Nc1ccc(Oc2ccc(C(=O)O)c(C(=O)O)c2)cc1)c1cccs1
1.0%	O=C(Cn1c(=O)oc2cc(S(=O)(=O)N3CCCCCC3)ccc21)Nc1cccc(C(F)(F)F)c1
-3.8%	Cc1ccc(OCC(=O)Nc2sc3c(c2C#N)CC(C)(C)NC3(C)C)cc1
-18.4%	Cc1nn(CC(=O)NN)c(C)c1Br
6.5%	Cc1cc(C)c2nc(NC(=O)c3ccc(OCC4CCCO4)cc3)sc2c1 (configuration not stated)
-4.0%	COc1ccc(C(=O)Nc2cc(OC)cc(OC)c2)cc1
-16.8%	CCCN(CCC)CCCNC(=O)Cn1ncn2c(cc3sc(CC)cc32)c1=O
2.9%	COc1cc(OC)c2c(O)c3c(c(-c4c5c(c(O)c6c(OC)cc(OC)cc46)CO[C@@H](C)[C@H]5O)c2c1)[C@H](O)[C@H](C)OC3
5.4%	CC(C)c1ccc(C(C(=O)NC(C)(C)C)N(C(=O)CNC(=O)c2ccco2)c2cccnc2)cc1 (configuration not stated)
4.9%	COc1cc(Br)c(C(C)NC(=O)c2ccc(C)cc2)cc1OC (configuration not stated)
4.5%	Cc1ccc(CCNC(=O)CCn2nc(-c3ccccc3)ccc2=O)cc1
-5.5%	O=S(=O)(NCc1ccccc1Cl)c1cccs1
-8.5%	CCOC(=O)C(C(=O)NCc1cccc(OC)c1)c1ncc(C(F)(F)F)cc1Cl (configuration not stated)
6.8%	Cc1ccc2nc(-c3ccccn3)oc2c1

(list continues)
VDR inhibitor	SMILES
3.0%	NC(=O)CC(NC(=O)Cc1ccc(Br)cc1)c1ccc(NC2CCN(Cc3ccccc3)CC2)c([N+](=O)[O-])c1 (configuration not stated)
-8.0%	CCN(CC)C(=S)Nc1ccc(OC)cc1
8.1%	C1CCCN(c2nc3nonc3nc2N2CCCCCC2)CC1
3.0%	COc1ccc(Cl)cc1NC(=O)CSc1nccn1-c1ccc(Cl)cc1
-0.3%	CCOc1ccccc1NC(=O)NCc1noc2ccc(C)cc12
9.2%	COc1ccc(N(C(=O)c2snc(C(N)=O)c2N)C(C(=O)NC2CCCCC2)c2ccc(C)o2)cc1 (configuration not stated)
-3.5%	CCNC(=O)N1CCCC(C(=O)c2ccc3cc(OC)ccc3c2)C1 (configuration not stated)
9.4%	O=C(CNC(=O)c1ccccc1)OCc1cc(=O)n2nc(C3CCCCC3)sc2n1
9.9%	O=C(Nc1nnc(-c2cc(Cl)ccc2Cl)o1)c1ccc2c(c1)OCCO2
6.2%	CCOc1ccccc1NC(=O)Cn1c(-c2ccc(Cl)cc2)noc1=O
-20.8%	CCOc1cc(C(=O)N(C)CC(=O)Nc2cccc(F)c2)ccc1OCC(=O)N1CCCCC1
-2.3%	S=C(Nc1ccc2snnc2c1)N1CCN(c2ccccn2)CC1
5.5%	CC(=O)Nc1ccc(S(=O)(=O)N2CCCCC2c2cccnc2)cc1 (configuration not stated)
0.6%	O=C(/C=C/c1ccccc1)N(Cc1ccc(Cl)cc1)C1CCS(=O)(=O)C1 (configuration not stated)
13.6%	C/C(=N\O)C(=O)NCCCNCCCN(C)C

Compounds listed so far that contain a nitro group on carbon, in the order listed:
VDR inhibitor	SMILES
-17.2%	COc1c(/C=C2\SC(=Nc3ccccc3Cl)NC2=O)cccc1[N+](=O)[O-]
3.0%	NC(=O)CC(NC(=O)Cc1ccc(Br)cc1)c1ccc(NC2CCN(Cc3ccccc3)CC2)c([N+](=O)[O-])c1 (configuration not stated)

Remaining list, next part:
VDR inhibitor	SMILES
-6.3%	CC1CCN(C(=O)CN(Cc2ccc(F)cc2)S(C)(=O)=O)CC1
-20.8%	COc1ccc(C)cc1NC(=O)c1nn(-c2ccccc2)cc1OC
3.2%	COc1ccc(S(=O)(=O)Nc2ccc3c(c2)OCO3)cc1OC
-3.2%	CC1(C)OC(=O)C=C[C@@]2(C)C1C[C@@H](O)[C@]1(C)C2CC[C@@]2(C)C(c3ccoc3)OC(=O)[C@H]3O[C@]321 (some centres not stated)
11.1%	Cc1ccc2c(cnn2C(=O)CCC(=O)NC2CCCCC2)c1
12.7%	Cc1ccc(-c2csc3nnc(SCC(=O)Nc4nsc(-c5ccccc5)n4)n23)cc1
-13.1%	CC(=O)N1CCN(C(=S)c2ccc(N(C)C)cc2)CC1
7.6%	Cc1cc(C)nc(NC(=O)CN2C(=O)c3ccccc3C2=O)n1
?	C/C(=N/NC(=O)c1ccc(Br)o1)c1cccc(NC(=O)c2ccc(C)o2)c1
6.6%	Cc1c(Br)c([N+](=O)[O-])nn1CC(=O)NCC1CCCO1 (configuration not stated)
-2.5%	COc1ccccc1-c1nc(-c2ccccc2)nc(N2CCN(C)CC2)c1C#N
-7.6%	COc1cc(NC(=O)c2ccccc2)c(OC)cc1NC(=O)CN1CCCCC1
?	O=C(CSc1ncc(C(F)(F)F)cc1Cl)N1CCN(S(=O)(=O)c2ccc3ccccc3c2)CC1
18.8%	COc1ccc(C(=O)Nc2ccnn2C2CCN(Cc3ccc4nonc4c3)CC2)cc1
-4.2%	Cc1nc(-c2ccc(NC(=O)/C=C\C(=O)O)cc2)cs1

Additional results:
VDR inhibitor	SMILES
-6.1%	COc1cc(/C=N/n2c(-c3ccc4c(c3)NC(=O)CO4)csc2=Nc2cccc(C)c2)ccc1O
23.2%	Cc1ccc(NS(=O)(=O)c2ccc(Br)cc2)nc1
-1.6%	O=C(N1CCOCC1)C1(S(=O)(=O)c2ccccc2)CC=CC1
-5.6%	CCOC(=O)N1CCN(C(=O)COC(=O)Cc2ccc(OC)cc2)CC1
2.8%	CN1C(=O)c2ccccc2C(C(=O)NCCCN2CCCC2)C1c1c[nH]c2ccccc12 (configuration not stated)
-0.8%	Clc1cccc(Cl)c1CSc1cc2c(nn1)-c1ccccc1CC2
1.9%	O=C(NC(C1CC1)C1CC1)C1CCC(=O)N(CCCN2CCCC2=O)C1 (configuration not stated)
-8.3%	CCn1ccc(C(=O)Nc2c(C)nn(Cc3c(F)c(F)c(F)c(F)c3F)c2C)n1
15.2%	NC(=O)COc1ccc2cc(-c3ccc(F)cc3)c(=O)oc2c1
1.5%	COc1ccc(Cc2c(O)nc(SCC(=O)N3CCOCC3)[nH]c2=O)cc1
7.1%	COc1ccc(S(=O)(=O)N2CCC(C(=O)Nc3ccc(F)cc3)CC2)c2cccnc12
-20.4%	O=C(CN1C(=O)NC2(CCCCC2)C1=O)NCCc1ccc(Cl)cc1Cl
-8.6%	O=C(Nc1ccccc1C(=O)N1CCCCCC1)c1cccc([N+](=O)[O-])c1
1.8%	COc1ccc(OCc2cc(C(=O)N3CCCCCCC3)no2)c(Cl)c1
-6.2%	COc1ccc(-c2nc(SCC(=O)N(CC(C)C)c3c(N)n(Cc4ccccc4)c(=O)[nH]c3=O)n[nH]2)cc1

Grouped by structure: the entries above containing an NH in an aromatic ring (8)
VDR inhibitor	SMILES
23.0%	Cc1ccc(NC(=O)c2cc(-c3ccccc3)n[nH]2)cc1
-18.8%	Cc1ccc(CNC(=O)C2CCCN(S(=O)(=O)c3c(C)[nH]c(=O)[nH]c3=O)C2)cc1 (configuration not stated)
-6.9%	CCOC(=O)c1c(C)c[nH]c1C
-9.3%	O=C(CSc1nc(-c2ccccc2)c(-c2ccccc2)[nH]1)Nc1ccc2c(c1)OCO2
0.4%	COc1ccccc1N1CCN(CC(O)c2ccc3cc[nH]c3c2)CC1 (configuration not stated)
2.8%	CN1C(=O)c2ccccc2C(C(=O)NCCCN2CCCC2)C1c1c[nH]c2ccccc12 (configuration not stated)
1.5%	COc1ccc(Cc2c(O)nc(SCC(=O)N3CCOCC3)[nH]c2=O)cc1
-6.2%	COc1ccc(-c2nc(SCC(=O)N(CC(C)C)c3c(N)n(Cc4ccccc4)c(=O)[nH]c3=O)n[nH]2)cc1

(listing goes on)
VDR inhibitor	SMILES
-5.9%	CCOC(=O)c1ccccc1NC(=S)N1CCC(C(N)=O)CC1
19.5%	Cc1ccc(CCNC(=O)C2CCC(CNc3c(N4CCC(C)CC4)c(=O)c3=O)CC2)cc1 (configuration not stated)
-0.5%	O=C(NNC(=O)c1ccccc1Cl)c1cccs1
-9.7%	O=C(COC(=O)c1cccc([N+](=O)[O-])c1)Nc1ccc(Cl)cn1
-9.1%	COC(c1ccccc1)c1nnc(CCC(=O)NCc2ccc3ncccc3c2)o1 (configuration not stated)
-5.4%	CC(=O)N1CCN(C(=O)c2cccc(S(=O)(=O)N3CCN(c4ccc(F)cc4)CC3)c2)CC1
98.2%[activator]	CN(C(=O)CSc1ncnc2ccccc12)C1CCS(=O)(=O)C1 (configuration not stated)
?	COC(=O)C1CCC(=S)N1C(=O)c1ccccc1 (configuration not stated)
9.9%&-4.8%	COc1ccc(CCNC(=O)CS(=O)Cc2nc(-c3ccc(C)cc3)oc2C)cc1OC (configuration not stated)
18.4%	CC(=O)Nc1ccc(NC(=O)COC(=O)[C@@H](NC(=O)c2ccc(F)cc2)C(C)C)cc1
11.3%	C/C(CC(=O)Nc1cccc2c1CCCC2)=N\NC(=O)Cc1ccccc1
16.9%	Cc1cc(C)c(S(=O)(=O)N2CCCCC2CCNC(=O)C(=O)NCc2ccccn2)c(C)c1 (configuration not stated)
-2.9%	Cn1ccc2cc(S(=O)(=O)N3CCN(C(=O)Nc4ccc(F)cc4F)CC3)ccc21
